# High-throughput results: PubChem, National Center for Advancing Translational Sciences (NCATS)
# TRPML1 inh: inhibitors of human TRPML1 channel | 0.02% of 390,000 active | activity change, negative = inhibition, % (concentration not given with the values) | Q9GZU1 | TRPML1-inducible cells, Ca2+ dye fluorescence, FDSS; active compounds read low; inhibition of EC80 agonist-evoked calcium signal | AID 624415; in the data active means activity change below about -50%; inconclusive means about -30% to -50%; inactive means above about -30%;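 note: stimulus is agonist 54-4 at its EC80 concentration; % is set by controls: 0 for no effect and ±100 for the full control effect; the text of the record puts the active cut at -80%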
# Target sequence (Q9GZU1 whole entry, looked up): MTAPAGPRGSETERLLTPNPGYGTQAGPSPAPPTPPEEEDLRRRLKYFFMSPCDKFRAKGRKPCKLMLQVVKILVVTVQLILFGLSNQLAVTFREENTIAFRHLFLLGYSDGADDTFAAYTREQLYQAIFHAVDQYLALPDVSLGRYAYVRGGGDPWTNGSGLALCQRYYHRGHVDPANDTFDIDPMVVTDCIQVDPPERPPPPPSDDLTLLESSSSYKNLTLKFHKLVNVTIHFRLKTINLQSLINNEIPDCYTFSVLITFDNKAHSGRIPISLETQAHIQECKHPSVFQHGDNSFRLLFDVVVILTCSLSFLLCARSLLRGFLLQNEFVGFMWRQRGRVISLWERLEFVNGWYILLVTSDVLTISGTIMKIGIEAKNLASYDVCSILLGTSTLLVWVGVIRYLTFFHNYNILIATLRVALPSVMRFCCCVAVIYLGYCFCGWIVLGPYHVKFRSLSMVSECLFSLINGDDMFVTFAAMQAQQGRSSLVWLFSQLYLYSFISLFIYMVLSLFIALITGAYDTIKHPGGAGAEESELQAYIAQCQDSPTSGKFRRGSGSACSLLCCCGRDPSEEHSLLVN
#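 Calcium fluorescence in TRPML1-DL cells induced overnight with Tet: a 110 s read after compound pin addition, then a 110 s antagonist read after challenge with 54-4 at 4 uM final (EC80).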
# D2 potentiator: human D2 receptor positive allosteric modulation; P14416; DiscoveRx D2 beta-arrestin cells, luminescence, 90 min; 100% = 57 uM dopamine signal; potentiation, % (no concentration beside the values); 0.23% of 360,000 active; active = potentiation of 50% or more; inconclusive = 30% to 50%; inactive = 30% or less;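 note: compound concentration not given in the record; tested on top of an EC20 dose of dopamine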
# Target sequence (P14416 whole entry, looked up): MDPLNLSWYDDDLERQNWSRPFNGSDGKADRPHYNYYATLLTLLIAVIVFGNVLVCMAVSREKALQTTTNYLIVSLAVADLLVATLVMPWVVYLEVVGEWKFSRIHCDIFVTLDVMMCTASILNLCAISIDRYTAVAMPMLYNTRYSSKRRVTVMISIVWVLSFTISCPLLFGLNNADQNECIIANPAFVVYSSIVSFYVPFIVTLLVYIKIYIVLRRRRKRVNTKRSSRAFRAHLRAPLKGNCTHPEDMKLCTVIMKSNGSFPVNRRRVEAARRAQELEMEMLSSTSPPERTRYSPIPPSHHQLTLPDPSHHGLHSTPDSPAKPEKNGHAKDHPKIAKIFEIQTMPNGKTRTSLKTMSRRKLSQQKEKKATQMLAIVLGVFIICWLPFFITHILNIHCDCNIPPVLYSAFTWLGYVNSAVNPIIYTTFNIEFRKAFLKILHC
#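 PathHunter D2 cells, attached overnight at 37 deg C, received compound in DMSO plus dopamine at EC20 (50 nM final) for 90 min at 37 deg C. Beta-arrestin recruitment was read as luminescence after 1 h with detection reagent at ambient temperature.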
# CtBP-E1A blk: blocks the CtBP interaction with E1A; AlphaScreen GST-E1A/His-CtBP binding, 1536-well; active compounds read low; control for the full effect not named in the record; activity change, % (no concentration beside the values); 0.49% of 340,000 active; in the data active means activity change below about -65%; inconclusive means about -30% to -65%; inactive means above about -30%; note: % is set by controls: 0 for no effect and ±100 for the full control effect
#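 In 5 uL wells, 23 nL compound meets equimolar GST-E1A and His-CtBP (5X stock 125 nM each) for 2 h, 37 °C. Beads (5X, 50 ug/mL) then 1 h, 37 °C, dark.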
# TRPV1 PAM: potentiators of human vanilloid receptor 1 (TRPV1); potentiation, % at 8.33 µM; 0.02% of 320,000 active; TRPV1-expressing cells, Fluo-8 calcium influx, capsaicin EC20 potentiation; host cell line not named in the record; control for the full effect not named in the record; active means potentiation above 80%; inconclusive means 30% to 80%; inactive means below 30%; note: 0% is about no effect
#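 Cells expressing TRPV1 were dye-loaded with Fluo-8 and read kinetically: 10 s baseline, 3 min after compound (agonist portion), then 2 min after EC20 capsaicin (allosteric enhancer portion). Calcium-bound dye fluorescence at 480/520 nm.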
# TRPML1 agonist: agonists of human TRPML1 channel. Q9GZU1. TRPML1-expressing cells, Ca2+ dye fluorescence, FDSS; host cell line not named in the record; reference of the full effect not given here. activation, % (test concentration not listed). 0.12% of 410,000 active. AID 624414; in the data active = activation above about 50%; inconclusive = about 30% to 50%; inactive = below about 30%; note: 0% is about no effect; the text of the record puts the active cut at 80%
#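 In this qHTS format, compounds were pin-transferred onto Ca8-dye-loaded TRPML1-DL cells induced with Tet overnight, and intracellular Ca2+ fluorescence was recorded kinetically for 110 s after a 10 s baseline. A subsequent 4uM final 54-4 (EC80) addition followed by a second 110 s read served as the antagonist phase.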
# Six1-Eya2 blk: Six1/Eya2 interaction inhibition; Q15475+O00167; AlphaScreen GST-Six1/His-Eya2 binding, biochemical; active compounds read low; control for the full effect not named in the record; activity change, % (no concentration beside the values); 0.56% of 360,000 active; AID 651725; in the data active = activity change below about -65%; inconclusive = about -30% to -65%; inactive = above about -30%; note: % is set by controls: 0 for no effect and ±100 for the full control effect
#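 GST-Six1 + His-Eya2 (5X stock: 250/500 nM); Tris pH 8.0, 300 mM NaCl, 0.05% BSA, 0.02% Tween 20; GSH donor/Ni acceptor beads; 1 h 37 °C dark; AlphaScreen readout.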
# An asterisk follows results filed as active; ? = inconclusive; . = no result given; & = joins results of further samples.
no.	smiles	TRPML1 inh	D2 potentiator	CtBP-E1A blk	TRPV1 PAM	TRPML1 agonist	Six1-Eya2 blk
1	CN(C)Cc1cc(C(C)(C)C)cc(N2CCOCC2)c1O	-4	-3	1	.	-0.5	2
2	COc1ccc(/C=N/n2cnc3c([nH]c4ccc(Br)cc43)c2=O)cc1CN1CCOCC1	5	8	-1	-1	0.4	-9
3	O=C(Nc1ccc(F)c(Cl)c1)c1cc(C2CCCN(S(=O)(=O)c3ccccc3)C2)on1 (stereo not given)	.	2	3	.	-0.1	-7
4	CCCCn1c(SCc2nc3ccccc3s2)nc2ccccc2c1=O	23	-6	-4	1	0.3	-1
5	CCNC(=O)C/C(C)=N/NC(=O)C1CCCCC1	-2	-5	22	-9	-0.4	6
6	CCOc1c(N2CCOCC2)c(=O)c1=O	19	-5	4	26	2.0	0
7	COc1ccc(C2N(c3ccc4c(c3)OCCO4)C(=O)C2(F)F)cc1OC (stereo not given)	11	9	0	12	1.4	-5
8	O=C(NCc1ccco1)c1ccc2[nH]c(=O)c(=O)[nH]c2c1	1	-4	.	8	-0.5	-21
9	COc1ccnc(-n2cccc2C=O)c1C#N	-26	-5	11	?	0.6	6
10	COc1ccc(OC)c(NC(=O)C2=C(C)Nc3ncnn3C2c2cccs2)c1 (stereo not given)	-11	?	0	-3	-1.7	-4
11	CCOc1ccc(CCN2C(=S)N([C@@H](CC(C)C)CN3CCCC3CN3C(=S)NC[C@@H]3CC(C)C)C[C@@H]2Cc2ccccc2)cc1 (stereo not given in full)	-16	-7	0	.	-0.5	-6
12	CC1CCN(N=Nc2nc3c([nH]2)c(=O)n(C)c(=O)n3C)CC1	7	-12	1	.	0.1	3
13	Cc1ccc(C(=O)NNC(=O)c2ccc3ncccc3c2)cc1	-18	1	1	6	-0.1	-2
14	CCC(=O)c1ccc2c(c1)OCCO2	-11	-2	7	9	3.9	9
15	Cc1ccc(NC(=O)CN(C)C(=O)c2ccc(Br)o2)cc1	-9	-4	-6	14	1.2	-4
16	Cc1noc(C)c1S(=O)(=O)N(CC(=O)N1CCCC1)c1ccc(C(C)C)cc1	1	-10	6	-5	-0.6	0
17	O=C(c1cc2c(s1)CCCC2)n1cccn1	6	-7	13	-3	0.3	15
18	Cc1ccc(-n2nnnc2CNC(=O)C2CC(=O)N(c3ccc(F)cc3)C2)cc1C (stereo not given)	-19	-5	7	-14	1.6	1
19	COC(=O)COc1ccc(S(=O)(=O)NCc2ccco2)cc1Cl	6	1	-2	-3	-0.6	-2
20	CSCCC(NC(=O)c1ccc([N+](=O)[O-])cc1Cl)C(=O)OCC(=O)NCC(F)(F)F (stereo not given)	-14	-1	7	11	-0.7	4

# A few values from above.
# D2 potentiator, no. 7 is entered as 9
# D2 potentiator, no. 1 is entered as -3
# TRPML1 agonist, no. 8 is entered as -0.5
# D2 potentiator, no. 12 is entered as -12
# CtBP-E1A blk, no. 14 is entered as 7

# Returning to the listing, repeating the 2 entries before the break.
no.	smiles	TRPML1 inh	D2 potentiator	CtBP-E1A blk	TRPV1 PAM	TRPML1 agonist	Six1-Eya2 blk
19	COC(=O)COc1ccc(S(=O)(=O)NCc2ccco2)cc1Cl	6	1	-2	-3	-0.6	-2
20	CSCCC(NC(=O)c1ccc([N+](=O)[O-])cc1Cl)C(=O)OCC(=O)NCC(F)(F)F (stereo not given)	-14	-1	7	11	-0.7	4
21	CCN(CC)C(=O)c1ccc(-c2cccs2)s1	-2	-10	-1	-4	0.3	3
22	CC1(C)CC(NC(=O)CC2CCCCC2)CC(C)(C)N1	25	8	-2	-5	-0.1	6
23	O=C1CC(c2ccccc2)CC(O)=C1C=NCCCN1CCOCC1 (stereo not given)	5	-4	3	-1	-0.3	1
24	CCOC(=O)c1cc(NC(=O)c2cccnc2)cc(C(=O)OCC)c1	33	-3	4	-28	3.1	1
25	COc1cc(/C=N/NC2=NC(C)(C)Cc3ccccc32)cc(OC)c1OC	15	-5	-9	5	1.4	-4
26	O=C(CN1CCCC1)NCC12CC3CC(CC(C3)C1)C2	4	-14	7	8	0.0	-1
27	CC(C)c1nc(CNC(=O)CC2C(=O)NCCN2Cc2ccc(F)cc2Cl)cs1 (stereo not given)	-19	-16	-2	-2	0.7	-10
28	C=C(c1ccccc1)c1ccc(N(C)C)cc1	33	-7	?	0	1.1	-12
29	Cc1ccc(NC(=O)Nc2ccccc2)cc1[N+](=O)[O-]	3	-15	1	-27	0.8	-5
30	CC(=O)Nc1nn(C)c2nc3ccc(C)cc3cc12	-7	-16	.	17	-0.1	-17
31	COc1ccc(N2CCN(S(=O)(=O)c3ccc4c(c3)NC(=O)CC(=O)N4)CC2)cc1	-6	-3	-4	6	-0.4	-2
32	CC1(c2ccc3c(c2)OCCO3)NC(=O)N(CC(=O)Nc2ccccc2SCC#N)C1=O (stereo not given)	2	-3	4	-5	5.2	0
33	COc1ccc(OCCCNCCc2ccccc2)cc1	-20	-18	1	15	-0.1	-7
34	COC(=O)c1ccc2nc(-c3ccc(Cl)cc3)c(Cc3cccc(F)c3)n2c1	-4	-4	2	.	-0.1	-4
35	O=C(CN(CCCN1CCOCC1)C(=O)Cn1nnc(-c2ccc(F)cc2)n1)NC1CCCCC1	-8	-14	1	-10	-0.1	2
36	CCOC(=O)[C@H]1[C@H]2COc3ccccc3[C@@H]2N2C(=O)c3cc(OC)c(OC)cc3NC(=O)[C@@]12C	-5	-9	.	-9	0.2	-8
37	CC1(C(=O)Nc2ccccc2)CCN1C(=O)Cc1ccc(-c2ccccc2)cc1 (stereo not given)	.	1	3	.	-0.4	-6
38	O=C(Nc1ccccc1)c1ccccc1CSc1ccccc1	-6	-7	15	2	0.5	19
39	O=[N+]([O-])C(/C=C(/Cl)[N+](=O)[O-])=C(N1CCCCC1)N1CCCCC1	28	10	-3	-1	1.0	-5
40	CCOCc1nnc(NS(C)(=O)=O)s1	-8	4	-5	-13	0.1	3
41	CC(NC(=O)CN(C)S(=O)(=O)c1ccc(Br)s1)c1ccccc1 (stereo not given)	0	-2	3	10	0.6	1
42	NCCCNC(=O)Cn1c(=O)c2c3c(sc2n(Cc2ccccc2)c1=O)CCCC3	14	-19	3	21	-0.3	0
43	O=C(CSc1nc2ccccc2o1)NCc1n[nH]c(=O)c2ccccc12	1	-33	5	5	-0.2	3
44	COc1ccc(N/N=C(/C(C)=O)N2CCCc3ccccc32)cc1	-4	-12	-2	0	-0.4	?
45	Cn1cccc1CNCc1ccc(F)cc1	1	-29	9	2	-0.1	-16
46	COc1cccc(CNC(=O)[C@H](C)NC(=O)N2CC(=O)Nc3ccccc32)c1	3	-22	0	.	-0.3	5
47	O=C(COc1ccc(OCc2ccccc2)cc1)NN=C1CCCC1	15	-4	-6	-25	0.9	19
48	Fc1cccc(Cl)c1CNCCCSc1ncccn1	-6	-4	.	-10	-0.9	3
49	CC(=O)N1CCC(N2CCN(c3ccccc3F)CC2)CC1	9	2	6	-7	2.3	1
50	N/C(=N\OC(=O)CC1CCCCC1)c1cccnc1	-4	13	-2	-7	0.3	5
51	COc1ccc(C(CCN2CCCC2)c2c(OC)cc(OC)c3c(-c4ccccc4)cc(=O)oc23)cc1 (stereo not given)	18&8	-22	-6	13	1.8&0.9	-4
52	CCCNC(=S)N1CCC(NC(=O)c2ccc(C)cc2)CC1	5	-25	7	-7	0.2	0
53	CCN(CC(=O)Nc1ccc(NC(C)=O)cc1)C(=O)c1ccc(NC2CC2)c([N+](=O)[O-])c1	-11	-21	18	6	-0.6	-7
54	Cc1c(C(=O)OCC(C)(C)CN(C)C)oc2ccccc12	2	-17	-4	1	4.3	-4
55	C/C=C\C=C/C(=O)Nc1cccc(C2=NOC3(C2)C[C@@H](C(N)=O)N(C(=O)CCCCC)C3)c1 (stereo not given in full)	33	4	-1	-14	-0.6	-3
56	CCOc1cccc(-c2nnc(SCC(=O)Nc3cccc(OC)c3)n2N)c1	0	-4	5	?	1.4	4
57	CCN(C[C@H]1N[C@@](CC)(C(=O)OC)[C@H]2C(=O)N(C)C(=O)[C@@H]12)S(=O)(=O)c1ccc(F)cc1	28	.	3	.	-0.3	6
58	CCOC(=O)c1ccc(N2C(=O)CC(C)(CC)CC2=O)cc1	-3	-11	.	3	-0.8	2
59	O=C(Nc1c2c(nn1-c1ccccc1)CS(=O)(=O)C2)c1ccco1	6	-11	7	17	0.8	5
60	COc1ccc(C2=Nc3cccc4cccc(c34)N2)cc1	-6	-4	10	15	-0.6	0
61	CCN(CC(=O)Nc1ccc(Br)cc1)C(=O)c1nc2nc(C)cc(C)n2n1	-1	-3	2	2	-0.2	-1
62	O=C(O)CCC1=C2c3ccccc3CCN2C(=O)CC1	13	-1	3	6	-0.4	6
63	CC(=O)NCCc1nc2cc(NC(=O)Nc3ccccc3)ccc2n1C	.	-5	3	?	.	21
64	COC(=O)c1ccc(CSc2nc3cc(Cl)ccc3s2)o1	0	-4	24	-10	1.7	19
65	Cc1cccc(Oc2ccccc2NC(=O)C2=COCCO2)c1	-3	-7	.	-6	2.2	15
66	Cc1cc(Br)ccc1OCCN1CC(C)OC(C)C1 (stereo not given)	23	-15	-1	-10	0.8	-5
67	O=C(CC1S/C(=N/N=C/c2ccco2)NC1=O)Nc1ccccc1 (stereo not given)	2	13	7	?	0.1	-9
68	COC(=O)C(CC(C)C)NC(=O)c1cccs1 (stereo not given)	-6	-9	6	3	-0.5	2
69	COc1ccc(C(=O)NCC(=O)OCc2nc(N)nc(Nc3ccccc3C)n2)cc1	-19	-2	-4	3	1.6	-2
70	O=[N+]([O-])c1cccc(S(=O)(=O)c2cccc([N+](=O)[O-])c2)c1	35	11	14	9	-0.1	2
71	COc1ccc(CNC(=O)c2ccc[nH]2)cc1	-2	-7	5	9	-0.1	1
72	Clc1c2c(nc3ccccc13)CCC2	.	4	7	2	.	2
73	COc1c(F)c(F)c(C(=O)Nc2ccc(N3CCN(Cc4ccccc4)CC3)cc2)c(F)c1F	7	-10	-20	-16	-0.4	-22
74	COc1nc(-c2ccc(Cl)cc2)nnc1C	15	-1	9	-21	-0.1	5
75	CSCCC(NS(=O)(=O)c1ccc(Cl)c(Cl)c1)C(=O)O (stereo not given)	3	-6	-1	-1	-0.7	1
76	COc1cc2nc(CN3CCOCC3)n(CC(=O)NCC(F)(F)F)c(=O)c2cc1OC	54	-2	7	-17	0.7	4
77	CCCCCCOC(=O)c1ccc(N)cc1	.	2	19	-7	.	3
78	O=[N+]([O-])c1ccc(N2CCN(S(=O)(=O)Cc3ccccc3)CC2)cc1N1CCOCC1	9	-2	-8	17	-0.7	-10
79	O=C(C[C@H]1C[C@H](C(=O)N2CCOCC2)[C@@]2(CCC3CCCC3)c3[nH]c4cc(-c5ccco5)ccc4c3CCN2C1=O)NCCN1CCOCC1	-7	2	-19	.	1.4	-14
80	COC(=O)C1=C(C)N(c2cccc(C)c2)C(=O)/C1=C\c1cccs1	2	-7	-14	-4	1.7	-12

# Exported with two lines to a compound: two of the compounds above.
# Under each structure: TRPML1 inh, D2 potentiator, CtBP-E1A blk, TRPV1 PAM, TRPML1 agonist, Six1-Eya2 blk
71	COc1ccc(CNC(=O)c2ccc[nH]2)cc1
    -2, -7, 5, 9, -0.1, 1
76	COc1cc2nc(CN3CCOCC3)n(CC(=O)NCC(F)(F)F)c(=O)c2cc1OC
    54, -2, 7, -17, 0.7, 4
